OX1R antag: antagonists of human orexin 1 receptor (OX1R); inhibition, % at 6.6 µM; O43613; 330,000 compounds, 1.8% hits; OX1R-expressing cells, FRET antagonist read-out; in the data active = inhibition mostly above about 38%, no sharp cut-off; inactive = mostly below about 40%;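 also: 0% = agonist challenge alone and 100% = reference antagonist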
Target sequence (O43613 whole entry, looked up): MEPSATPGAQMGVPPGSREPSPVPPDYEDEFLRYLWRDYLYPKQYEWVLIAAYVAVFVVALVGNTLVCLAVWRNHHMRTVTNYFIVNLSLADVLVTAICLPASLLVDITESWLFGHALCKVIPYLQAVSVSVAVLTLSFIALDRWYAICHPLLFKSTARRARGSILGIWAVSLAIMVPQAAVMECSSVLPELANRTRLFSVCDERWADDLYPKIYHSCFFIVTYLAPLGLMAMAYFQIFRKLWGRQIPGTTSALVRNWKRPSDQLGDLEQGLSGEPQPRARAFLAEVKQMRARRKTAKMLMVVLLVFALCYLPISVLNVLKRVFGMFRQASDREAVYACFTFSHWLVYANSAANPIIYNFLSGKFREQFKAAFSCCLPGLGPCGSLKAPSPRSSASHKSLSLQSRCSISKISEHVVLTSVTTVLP
An asterisk follows results filed as active. Not all compounds are listed, and most or all hits are left out here.

entry	Structure	OX1R antag
1	CCN(CC)c1nc(-c2ccc(Cl)cc2)cc(C(F)(F)F)c1C#N	43.0
2	CCOC(=O)C1(CCOC)CCN(Cc2ccc3nonc3c2)CC1	16.4
3	Cc1ccc(S(=O)(=O)N2CCC(C(=O)N[C@@H](C)C(=O)NC3CCCCC3)CC2)cc1	9.5
4	O=C(COC(=O)CNC(=O)c1cccc([N+](=O)[O-])c1)NCc1ccco1	33.0
5	O=C(CSc1nc2ccsc2c(=O)n1NC(=O)c1ccccc1)NCc1ccco1	13.8
6	COc1ccc(/C(C)=N/NC(=O)CNC(=O)c2ccco2)cc1	0.3
7	c1ccc(N2CCOCCOCCOCCOCC2)cc1	12.5
8	CC(C)C(NC(=O)c1ccco1)C(=O)OCc1cc([N+](=O)[O-])cc2c1OCOC2 (configuration not stated)	31.7
9	NS(=O)(=O)c1cccc(NC(=O)c2ccc3nc[nH]c3c2)c1	-1.9
10	CCc1nnc(NC(=O)C(CC)c2ccccc2)s1 (configuration not stated)	15.1
11	CSc1oc(-c2ccco2)nc1S(=O)(=O)c1ccc(Br)cc1	4.5
12	COc1ccc(Br)cc1/C=N/NC(=O)CNC(=O)/C=C/c1ccccc1	19.7
13	Cc1ccc(S/C=C\C(=O)c2ccccc2)cc1	19.3
14	Cc1ccc(N2CC(C(=O)NCc3ccccn3)CC2=O)cc1 (configuration not stated)	13.9
15	C(=C\c1ccccc1)/C=N/Nc1ccc2nncn2n1	18.8

Entries above that have bromine, in the order listed:
entry	Structure	OX1R antag
11	CSc1oc(-c2ccco2)nc1S(=O)(=O)c1ccc(Br)cc1	4.5
12	COc1ccc(Br)cc1/C=N/NC(=O)CNC(=O)/C=C/c1ccccc1	19.7

Carrying on.
entry	Structure	OX1R antag
16	COc1ccc(NC(=O)c2c(NC(=O)CNCc3ccco3)sc3c2CCC3)c(OC)c1	25.1
17	N#CCCN1CCN(S(=O)(=O)c2ccc3c(c2)OCCCO3)CC1	15.0
18	Cc1ccc(N=C(NO)c2cnccc2C(F)(F)F)c(C)c1	1.2
19	CCCC(=O)N1CCN(c2ccc(NC(=O)c3ccc(Br)o3)cc2)CC1	19.2
20	CN1CCc2c(C#N)c(N3CCCCC3)nc(NCc3ccccc3)c2C1	11.8
21	Cc1ccc(CN2CCN(Cc3c(C)nn(-c4ccc(F)cc4)c3C)CC2CCO)o1 (configuration not stated)	29.7
22	COc1ccc(N(C(=O)COc2ccc(C)cc2)S(=O)(=O)c2ccc(C)cc2)cc1	6.4
23	Cc1ccc(N2C(=O)N(CC(=O)N3CCOCC3)C(=O)C2C)cc1 (configuration not stated)	1.4
24	O=C(Nc1ccnc(-c2cccnc2)n1)c1ccc(F)cc1	20.0
25	CC1=C(C(N)=O)C(c2ccccn2)n2nc(SCc3ccccc3Cl)nc2N1 (configuration not stated)	11.2
26	CCCc1cc(=O)n2c(nc3ccccc32)[nH]1	8.9
27	CCC(C)[C@H]1COCCS(=O)(=O)N1Cc1ccc(C)cc1 (some centres not stated)	23.2
28	N#CCCN(C(=O)CN1C(=O)NC2(CCCC2)C1=O)c1ccccc1F	14.9
29	COc1ccc(OCC(O)CN2CCN(c3ccc(Cl)cc3)CC2)cc1 (configuration not stated)	7.3
30	CCCn1c(C)cc(/C=C(\C#N)C(=O)OCC(=O)Nc2cccc(OC)c2)c1C	18.1

A section taken from the entries so far:
entry	Structure	OX1R antag
9	NS(=O)(=O)c1cccc(NC(=O)c2ccc3nc[nH]c3c2)c1	-1.9
10	CCc1nnc(NC(=O)C(CC)c2ccccc2)s1 (configuration not stated)	15.1
11	CSc1oc(-c2ccco2)nc1S(=O)(=O)c1ccc(Br)cc1	4.5
12	COc1ccc(Br)cc1/C=N/NC(=O)CNC(=O)/C=C/c1ccccc1	19.7
13	Cc1ccc(S/C=C\C(=O)c2ccccc2)cc1	19.3
14	Cc1ccc(N2CC(C(=O)NCc3ccccn3)CC2=O)cc1 (configuration not stated)	13.9
15	C(=C\c1ccccc1)/C=N/Nc1ccc2nncn2n1	18.8
16	COc1ccc(NC(=O)c2c(NC(=O)CNCc3ccco3)sc3c2CCC3)c(OC)c1	25.1
17	N#CCCN1CCN(S(=O)(=O)c2ccc3c(c2)OCCCO3)CC1	15.0
18	Cc1ccc(N=C(NO)c2cnccc2C(F)(F)F)c(C)c1	1.2
19	CCCC(=O)N1CCN(c2ccc(NC(=O)c3ccc(Br)o3)cc2)CC1	19.2
20	CN1CCc2c(C#N)c(N3CCCCC3)nc(NCc3ccccc3)c2C1	11.8
21	Cc1ccc(CN2CCN(Cc3c(C)nn(-c4ccc(F)cc4)c3C)CC2CCO)o1 (configuration not stated)	29.7
22	COc1ccc(N(C(=O)COc2ccc(C)cc2)S(=O)(=O)c2ccc(C)cc2)cc1	6.4
23	Cc1ccc(N2C(=O)N(CC(=O)N3CCOCC3)C(=O)C2C)cc1 (configuration not stated)	1.4
24	O=C(Nc1ccnc(-c2cccnc2)n1)c1ccc(F)cc1	20.0
25	CC1=C(C(N)=O)C(c2ccccn2)n2nc(SCc3ccccc3Cl)nc2N1 (configuration not stated)	11.2
26	CCCc1cc(=O)n2c(nc3ccccc32)[nH]1	8.9
27	CCC(C)[C@H]1COCCS(=O)(=O)N1Cc1ccc(C)cc1 (some centres not stated)	23.2
28	N#CCCN(C(=O)CN1C(=O)NC2(CCCC2)C1=O)c1ccccc1F	14.9
29	COc1ccc(OCC(O)CN2CCN(c3ccc(Cl)cc3)CC2)cc1 (configuration not stated)	7.3
30	CCCn1c(C)cc(/C=C(\C#N)C(=O)OCC(=O)Nc2cccc(OC)c2)c1C	18.1

Next section.
entry	Structure	OX1R antag
31	CCCn1c(SCC(=O)Nc2cc(Cl)ccc2OC)n[nH]c1=O	28.2
32	Cc1ccc(N(CC(=O)NC2CCCCC2)C(=O)CNC(=O)c2cccs2)cc1	15.8
33	N#Cc1c(NCCCO)nc(-c2ccccc2)c2c1CCCC2	16.8
34	Cc1ccccc1C(=O)NC(=S)Nc1ccccc1C(=O)O	3.9
35	O=C(NCc1ccccc1)c1ccc(S(=O)(=O)N2CCCC2)cc1	14.7
36	O=C(O)c1cc(-c2ccc(Cl)cc2)n[nH]1	-2.6
37	CCOC(=O)c1sc(-c2ccc(OC)cc2)cc1N	31.3
38	CCNc1[nH]c(=O)n(C)c(=O)c1N=O	56.1
39	CCN(CC#CCC1(O)c2ccccc2-c2ccccc21)CCO	8.6
40	Cc1ccc(C(=O)CSc2nnc(-c3ccncc3)n2C)cc1	34.4
41	O=Cc1ccc(OC(=O)c2cc(Cl)nc3ccccc23)cc1	25.0
42	CCOC(=O)C1CCN(c2c(NCc3ccc(C(=O)N(C)Cc4ccccc4)cc3)c(=O)c2=O)CC1	11.2
43	COc1cc(C(=O)NCC(=O)N/N=C/c2ccc(-c3ccc([N+](=O)[O-])cc3)o2)cc(OC)c1OC	18.9
44	CC(=O)c1ccc(NS(=O)(=O)c2ccc(N)cc2)cc1	21.8
45	O=C(NCc1cccs1)C1CCCN(C(=O)Nc2ccccc2)C1 (configuration not stated)	1.3
46	COc1cccc(C(=O)N2CCN(Cc3ccccn3)CC2)c1	2.8
47	Cc1c(CC(=O)NCCCC(=O)O)c(=O)oc2cc3c(cc12)CCC(C)(C)O3	-3.3
48	Cc1c(C(=O)N2CCCC2)sc(NC(=O)c2cccs2)c1C#N	2.4
49	O=C(N/N=C/c1cccnc1)c1cc(-c2ccccc2Cl)nc2ccccc12	28.7
50	Cc1nc(NC(=O)C2CC2)sc1C(=O)Nc1ccc(Br)cc1	1.0
51	C=C(C)CSc1nnc(-c2cccc(Cl)c2)n1N	0.3
52	N#Cc1c(C(F)(F)F)cc(-c2ccccc2)nc1SCCN1CCOCC1	4.2
53	Cc1ccc(C(C)n2cc(C(=O)NCc3ccccn3)nn2)cc1 (configuration not stated)	4.9
54	CC(C)COC(=O)c1cc(=O)[nH]c2ccccc12	13.3
55	CCN1C(=O)/C(=C/c2cccs2)N(C)C1=S	23.3
56	COc1ccc(-c2nc(CSCC(=O)NC3CCCc4ccccc43)c(C)o2)cc1OC (configuration not stated)	50.6
57	CCCN1CCN(C(=O)Cn2c(=O)oc3cc(S(=O)(=O)NCc4ccccc4)ccc32)CC1	8.0
58	CCn1c(COc2ccc(OC)cc2)nnc1SCc1nc2ccccc2c(=O)[nH]1	2.6
59	CCOC(=O)c1c(NC(=O)COC)sc2c1CCCC2	11.9
60	CCOC(=O)N1CCN(C(=O)Nc2ccc3nc(-c4ccccn4)c(-c4ccccn4)nc3c2)CC1	59.5
61	CC1Cc2ccccc2N1C(=O)COC(=O)c1cccnc1Cl (configuration not stated)	12.5
62	Cc1c(NC(=O)/C=C/c2ccc(S(=O)(=O)N3CCOCC3)cc2)c(=O)n(-c2ccccc2)n1C	5.2
63	CC(C)CCN1C(=O)c2ccc(C(=O)OCC(=O)N(C)C3CCS(=O)(=O)C3)cc2C1=O (configuration not stated)	34.5
64	Cc1cnc(C(=O)Nc2ccc(N3CCN(C(=O)OC(C)(C)C)CC3)cc2)cn1	1.1
65	CC(C)OCCCn1c(SC(C)C(=O)NC2CC2)nc2ccccc2c1=O (configuration not stated)	10.4
66	CCOC(=O)Cc1[nH]nc2c1C(C1C=CCCC1)C(C#N)=C(N)O2 (configuration not stated)	11.7
67	Cc1ccc(C(=O)c2coc3ccc(O)c(Cl)c23)cc1	31.7
68	COc1ccc(-c2nnn(CC(=O)OC3CCCCC3)n2)cc1OC	13.9
69	COc1ccc(C2NCCn3cccc32)cc1 (configuration not stated)	24.7
70	O=C(CNC(=O)c1ccccc1)NCC(=O)OCc1ccccc1Cl	7.1
71	COc1ccc(C(c2c[nH]c3ccccc23)c2c[nH]c3ccccc23)cc1O	-6.2
72	NNc1cc(C(=O)O)ccc1Cl	8.0
73	CCc1nnc(NC(=O)CSC(=S)N2CCOCC2)s1	1.7
74	O=C(NC1(C(F)(F)F)NC(=O)N(Cc2ccco2)C1=O)c1cccnc1 (configuration not stated)	20.3
75	CC(C)Oc1ccc(C2CC(=O)N(c3cccc(C(=O)O)c3)C2=O)cc1 (configuration not stated)	6.3
76	CCc1nnc(NC(=O)CSc2nnc(COc3ccc(C#N)cc3)n2-c2ccccc2)s1	7.3
77	O=S(=O)(Nc1ccc(Br)cn1)c1ccc2ccccc2c1	4.2
78	CCOc1ccccc1N1CCN(C(=O)c2cc(C)oc2C)CC1	-1.7
79	S=c1[nH]nc(C2CCCCC2)n1/N=C/c1ccccc1Cl	3.2
80	Cc1ccc(S(=O)(=O)NCCSc2nnc(N)s2)cc1	27.5
81	CCOc1ccc(CCN2C(=O)c3cccnc3C2=O)cc1OCC	29.8
82	COc1cccc(CC(=O)OCC(=O)N(C)CC(=O)Nc2ccc(F)cc2)c1	6.5
83	CCN(CC)C(=O)c1sc2[nH]c(=S)n(-c3ccccc3)c(=O)c2c1C	5.4
84	CC(CCCC(C)(C)O)NCCO (configuration not stated)	-2.1
85	CCC(=O)Nc1nnc(S(=O)(=O)N2CCCc3ccccc32)s1	5.1
86	CC(=O)c1cccc(N(CC(=O)NC2CCCCC2)C(=O)Cn2nnc(-c3ccccc3)n2)c1	14.5
87	O=C(CS(=O)(=O)c1ccccc1)NCc1ccco1	9.4
88	CCOC(=O)C1CCCN(C(=O)c2cc(-c3ccccc3)on2)C1 (configuration not stated)	7.4
89	Cc1cc(C)n(-c2c(F)c(F)c(CN3CCOCC3)c(F)c2F)n1	7.3
90	COC(=O)c1ccc(C2/C(=C(\O)c3ccc4c(c3)OCCO4)C(=O)C(=O)N2CCCN(C)C)cc1 (configuration not stated)	25.4

Next part:
entry	Structure	OX1R antag
91	Cc1nccnc1Sc1ccccc1	0.9
92	N#CCn1cnc2c(oc3ccccc32)c1=O	13.4
93	CCOC(=O)c1ccc(NC(=O)NCc2ccn(CC)n2)cc1	11.4
94	CCOC(=O)c1cc2c(ccn2C)n1CC(=O)N(Cc1ccccc1)c1ccc(F)cc1	1.6
95	O=C(O)c1ccc(N2C(=O)CSC2=S)cc1	13.4
96	Cc1cc(-c2nnc(SCC(=O)Nc3cccc(F)c3)n2N)n[nH]1	2.1
97	O=C(/C=C/c1ccc(OC(F)F)cc1)OCC(=O)N1CCN(C(=O)c2ccco2)CC1	9.9
98	CCN(CC)c1ccc(/C=N/N2CCN(Cc3ccccc3Cl)CC2)cc1	5.2
99	Cc1nonc1OCCn1nnnc1N	6.5
100	CCSc1nc2c(c(=O)n1-c1ccc(F)cc1)SCC2	12.4
101	CCO[C@H]1OC(C(=O)N2CCN(Cc3ccccc3)CC2)=C[C@@H](c2cn(C(C)=O)c3ccccc23)[C@@H]1CCCO	13.7
102	O=S1(=O)N=C(N/N=C/c2ccco2)c2ccccc21	28.0
103	FC(F)(F)c1nnc2n1N=C(c1ccccc1)CS2	1.1
104	Cn1ncc([N+](=O)[O-])c1C(=O)Nc1cccc(Cl)c1	22.9
105	COc1ccc2[nH]c(C(=O)N(Cc3ccccn3)Cc3ccccn3)cc2c1	6.8
106	CCOc1ccc(NC(=O)C(NC(=O)C2CCC(C)CC2)C(C)C)cc1 (configuration not stated)	18.4
107	N#CC(C#N)=C1CCc2ccccc2N1	9.4
108	O=C1CC(c2ccccc2)CC(O)=C1C=NCCCO (configuration not stated)	8.8
109	Cc1c(NC(=O)CSc2nnc3sc4ccccc4n23)c(=O)n(-c2ccccc2)n1C	12.8
110	O=[N+]([O-])c1cc(CN2CCCC2)ccc1Sc1ccc(Cl)cc1	15.3
111	O=C(NCCCN1CCN(c2ccccc2)CC1)Nc1ccccc1C(F)(F)F	1.9
112	O=C(Oc1ccc(-c2nc(-c3ccccn3)no2)cc1)c1ccccc1	10.0
113	CC(=O)N1CCCc2cc(S(=O)(=O)NC(C(=O)NC(C)c3ccccc3)C(C)C)ccc21 (configuration not stated)	-0.2

Source: PubChem (The Scripps Research Institute Molecular Screening Center)
